Six1-Eya2 blk = qHTS Assay for Inhibitors of the Six1/Eya2 Interaction; Homeobox protein SIX1 (Homo sapiens) + Protein phosphatase EYA2 (Homo sapiens), …; AlphaScreen GST-Six1/His-Eya2 binding, biochemical; stronger effect = lower value; control for the full effect not named in the record; activity change, % (no concentration beside the values); 0.56% of 360,000 active; AID 651725, 2012; in the data active = activity change below about -65%; inconclusive = about -30% to -65%; inactive = above about -30%; note: % is set by controls: 0 for no effect and ±100 for the full control effect; compound concentration not given in the record
Target sequence (O00167 whole entry, looked up): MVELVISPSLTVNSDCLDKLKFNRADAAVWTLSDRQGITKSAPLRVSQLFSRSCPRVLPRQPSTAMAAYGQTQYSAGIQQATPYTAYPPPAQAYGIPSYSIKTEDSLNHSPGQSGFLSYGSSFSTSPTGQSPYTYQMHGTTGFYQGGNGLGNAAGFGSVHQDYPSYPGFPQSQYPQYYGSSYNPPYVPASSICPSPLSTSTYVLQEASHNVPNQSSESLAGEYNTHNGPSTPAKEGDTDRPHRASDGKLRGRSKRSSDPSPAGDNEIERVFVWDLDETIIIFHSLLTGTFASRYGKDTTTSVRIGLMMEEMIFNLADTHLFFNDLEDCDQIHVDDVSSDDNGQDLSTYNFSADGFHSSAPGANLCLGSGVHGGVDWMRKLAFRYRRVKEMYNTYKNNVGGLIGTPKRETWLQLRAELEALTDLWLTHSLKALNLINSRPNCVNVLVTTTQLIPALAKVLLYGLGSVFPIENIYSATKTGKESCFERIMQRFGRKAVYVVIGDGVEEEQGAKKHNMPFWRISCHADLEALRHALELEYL
Target sequence (Q15475 whole entry, looked up): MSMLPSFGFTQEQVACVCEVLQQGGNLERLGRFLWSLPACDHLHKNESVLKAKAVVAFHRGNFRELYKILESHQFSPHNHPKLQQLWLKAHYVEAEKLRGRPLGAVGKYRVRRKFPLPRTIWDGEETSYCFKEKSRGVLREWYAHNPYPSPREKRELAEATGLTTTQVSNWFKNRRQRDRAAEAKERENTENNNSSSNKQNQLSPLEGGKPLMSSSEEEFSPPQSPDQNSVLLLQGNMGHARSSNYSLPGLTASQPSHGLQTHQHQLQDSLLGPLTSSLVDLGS
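Homogeneous AlphaScreen proximity assay pairing GST-Six1 with His-tagged Eya2 (added as 5X mix: 250 nM and 500 nM) in 50 mM Tris pH 8.0, 300 mM NaCl, 1 mM TCEP. Glutathione donor and nickel acceptor beads; 1 h, 37 °C, dark.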
Sfp PPTase inh = qHTS Assay for Inhibitors of Bacillus subtilis Sfp phosphopantetheinyl transferase (PPTase); Biochemical Sfp PPTase activity, qHTS; Potency, µM, for the others: max response, negative = inhibition, most hits filed as inhibitors; 3.5% of 310,000 active; AID 1490, 2009; active = well fitted inhibition curve with a large enough effect; inconclusive = small, poorly fitted or top-dose-only effect, or another doubt; inactive = no such curve, though single readings can be large or run the other way;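 note: the enzyme is Sfp with the accession as filed and its product quenches rhodamine fluorescence; potency is the fitted concentration of half-maximal effect; 0% = enzyme reaction without inhibitor and -100% = no enzyme wells; top concentration of the series not given in the record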
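Compounds were incubated with enzyme (final 15 nM) for 15 min at room temperature before substrate addition started the reaction. Fluorescence at 525 nm excitation, 598 nm emission was recorded immediately and after 30 minutes.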
PINK1 expr mod = A Quantitative High throughput Screen to Identify Chemical Modulators of PINK1 Expression; AID 624263, 2012; 0.2% of 410,000 active; PINK1 immunofluorescence, high-content cytometry, 24 h; Potency, µM (titrated, usually from 76.6 µM), without a hit: top-dose activation (PINK1 increase), hits mostly activators; active = well fitted activation curve with a large enough effect; inconclusive = small, poorly fitted or top-dose-only effect; inactive = flat fitted curve, though single readings scatter; cell line not stated here;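 note: potency is the fitted concentration of half-maximal effect; % of control where 0% means no effect; nearly all actives have a fitted effect of over 65% in size; a mitochondrial uncoupler was the plate control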
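PINK1 protein level read as immunofluorescence by microplate cytometer in a fixed, stained stable cell line after 24 h exposure to five compound concentrations, with CCCP as control.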
CtBP-E1A blk = qHTS Assay for Inhibitors of the CtBP/E1A Interaction; CtBP / adenovirus E1A interaction (AlphaScreen); 0.49% of 340,000 active; AlphaScreen GST-E1A/His-CtBP binding, 1536-well; stronger effect = lower value; control for the full effect not named in the record; activity change, % (test concentration not listed); in the data active means activity change below about -65%; inconclusive means about -30% to -65%; inactive means above about -30%; note: % is set by controls: 0 for no effect and ±100 for the full control effect; compound concentration not given in the record
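Steps: dispense buffer (Tris pH 8.0, NaCl 300 mM, TCEP 1 mM, BSA, Tween 20); add 5X protein mix (GST-E1A, His-CtBP, 125 nM each); pin 23 nL compound; 2 h at 37 °C, dark; add 5X beads (50 ug/mL); 1 h; read.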
D2 ag = Beta-Arrestin HTS for Positive Allosteric Modulators of the Human D2 Dopamine Receptor: Agonists; DiscoveRx PathHunter D2 beta-arrestin, luminescence, 90 min; 100% = 57 uM dopamine signal; activation, % (concentration not given with the values); 0.084% of 360,000 active; AID 624465, 2012; D(2) dopamine receptor (Homo sapiens), P14416; in the data active = activation above about 40%; inconclusive = about 15% to 40%; inactive = below about 15%; note: compound concentration not given in the record; the text of the record calls up to 30% inactive
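Agonist mode: compounds alone added to overnight-plated D2 PathHunter cells for 90 min at 37 C, with 57 uM final dopamine (EC100) defining full response. Beta-arrestin recruitment detected by chemiluminescent reagent, read after 1 h at ambient temperature.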
TRPV1 PAM = HTS Assay for Compounds that Act as Potentiators of the Vanilloid Receptor 1. Transient receptor potential cation channel subfamily V member 1 (Homo sapiens), Q8NER1. TRPV1-expressing cells, Fluo-8 calcium influx, capsaicin EC20 potentiation; host cell line not named in the record; control for the full effect not named in the record. potentiation, % at 8.33 µM. 0.02% of 320,000 active. AID 540277, 2011; active means potentiation above 80%; inconclusive means 30% to 80%; inactive means below 30%; note: 0% is about no effect
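TRPV1-expressing cells were cultured overnight at 35.5C and loaded with Fluo-8 calcium dye for 40 to 90 min at room temperature. After a 10 s baseline, compound was added and calcium influx was read kinetically for 3 min (ex 480/em 520 nm).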
D2 potentiator = Beta-Arrestin HTS for Positive Allosteric Modulators of the Human D2 Dopamine Receptor: Potentiators | potentiation, % (concentration not given with the values) | 0.23% of 360,000 active | DiscoveRx D2 beta-arrestin cells, luminescence, 90 min; 100% = 57 uM dopamine signal | AID 624464, 2012; active = potentiation of 50% or more; inconclusive = 30% to 50%; inactive = 30% or less;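 note: compound concentration not given in the record; tested on top of an EC20 dose of dopamine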
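PathHunter D2 cells, attached overnight at 37 deg C, received compound in DMSO plus dopamine at EC20 (50 nM final) for 90 min at 37 deg C. Beta-arrestin recruitment was read as luminescence after 1 h with detection reagent at ambient temperature.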
* hit, by the source's call; ? = inconclusive; / = no result given; & = joins results of further samples; [ ] = another dose, or the depositor's remark. This is a random part of the collection; overall some 3.7% were active at least once.

SMILES	Six1-Eya2 blk	Sfp PPTase inh	PINK1 expr mod	CtBP-E1A blk	D2 ag	TRPV1 PAM	D2 potentiator
COc1ccc(C)cc1Nc1ncnc2c1nnn2Cc1ccccc1Cl	-1.4	/	5.8%	4.3	-1.9	/	-4.4
COc1ccc(CCN(C)C2CCCN(C(=O)Cn3cccn3)C2)cc1OC (stereo unspecified)	1.1	0.8%	1.0%	-11.1	7.5	8.4	-11.8
COc1ccccc1OC(=O)Cc1cccc2ccccc12	6.1	-6.3%	2.5%	20.1	-5.9	-4.5	4.2
COc1ccc2c(c1)CCN1C2CCN2C(=O)CCC21 (stereo unspecified)	6.5	12.1%	1.5%	-1.5	-2.6	7.0	-0.4
COc1ccccc1S(=O)(=O)Cc1ccc(C(=O)N2CCN(c3ccccn3)CC2)o1	4.8	79.4µM*	1.3%	-2.9	4.5	-23.4	-3.7
Clc1ccc(-c2nc3cc(CN4CCCCC4)ccc3o2)cc1	-4.5	7.1%	0.9%	-6.3	3.9	-6.2	-19.3
Cc1c(NC(=O)C(C)OC(=O)c2ccc([N+](=O)[O-])cc2Cl)c(=O)n(-c2ccccc2)n1C (stereo unspecified)	-8.8	/	-3.2%	2.8	0.0	/	2.3
O=C(Nc1cccc(F)c1)/C(=C\c1cccnc1)NC(=O)c1ccco1	2.9	10.1%	-0.9%	2.4	0.4	1.2	-2.1
O=C1C=CC(=O)N1c1cccc(-c2ccccc2)c1	1.1	1.78µM*	4.8%	-0.7	-6.6	/	-24.3
O=C(NC1CCCCCC1)c1cc2c(=O)n3ccccc3nc2s1	-1.7	19.1%	7.9%	-2.0	-0.5	-11.1	-7.1
Clc1nccc(N2CCN(c3ccccc3Cl)CC2)n1	2.7	/	-0.4%	2.1	-2.2	/	-2.0
Cc1nc2c(-c3ccc(F)cc3)cnn2c(N)c1-c1ccccc1	24.3	7.0%	-0.8%	32.6	8.2	-6.0	-3.4
COc1ccc(N(CC(=O)NC2CC3CCC2C3)S(=O)(=O)c2ccc(C)cc2)cc1 (stereo unspecified)	-0.8	5.4%	-1.0%	-3.9	-9.6	-7.7	-25.0
O=C(NCC(NS(=O)(=O)OCC(Cl)(Cl)Cl)c1ccccc1)C(F)(F)F (stereo unspecified)	-1.5	15.1%	2.0%	-0.4	-0.6	5.1	-5.6
CC(C)CC(c1nnnn1C(C)(C)C)N1CCN(C2CCCC2)CC1 (stereo unspecified)	10.8	14.2%	0.3%	8.1	-3.2	21.1	-20.1
COC(=O)c1cc(OC)c(OC)cc1NC(=O)CCCCCN1C(=O)CCC1=O	-12.4	7.6%	-1.6%	-3.4	-0.6	-3.7	-15.7
O=C(c1ccc(-c2ccccc2)cc1)N1CCN(c2ncccn2)CC1	-1.5	-5.9%	-0.2%	-2.7	-1.6	-3.9	-1.9
CCc1nc2cccnc2n1-c1ccc(CC(=O)NCCOC)cc1	5.6	6.7%	2.0%	/	2.7	20.0	1.3
CSc1ccc(CC(=O)N2CCC(n3nccc3NC(=O)C3CC3)CC2)cc1	-5.4	14.4%	-0.9%	-2.8	-2.0	1.9	-3.4
COc1ccc(OCC(=O)NNC(=O)c2c(-c3ccccc3Cl)noc2C)cc1	-3.9	19.4%	-1.8%	-12.2	0.9	-7.0	-0.7
C=CCOC(=O)C1=C[C@@H](c2ccc3c(c2)OCO3)C[C@@H](OCCCCO)O1	-8.2	/	0.1%	-24.3	6.9	/	-1.0
CC1=C(C(=O)OCC2CCCO2)C(c2ccc(F)cc2)NC(=O)N1 (stereo unspecified)	13.3	22.1%	0.0%	4.8	3.5	-2.9	-0.7
CC1Oc2ccccc2C(=O)N(CC(=O)c2ccc3c(c2)OCCO3)C1=O (stereo unspecified)	8.0	11.0%	0.0%	6.3	-2.6	11.6	21.1
O=C(NC1(C(F)(F)F)C(=O)Nc2c1c(=O)[nH]c(=O)n2-c1ccccc1)c1cccnc1 (stereo unspecified)	3.5	1.3%	-1.7%[38.3 µM]	1.7	-0.3	2.0	-5.1
O=C(OCc1cc2ccccc2[nH]c1=O)c1ccc([N+](=O)[O-])cc1	1.3	27.1%	1.6%	/	4.9	?	-5.5

Records listed above printed as active in Sfp PPTase inh.
Compound | Six1-Eya2 blk | Sfp PPTase inh | PINK1 expr mod | CtBP-E1A blk | D2 ag | D2 potentiator
COc1ccccc1S(=O)(=O)Cc1ccc(C(=O)N2CCN(c3ccccn3)CC2)o1 | 4.8 | 79.4µM* | 1.3% | -2.9 | 4.5 | -3.7
O=C1C=CC(=O)N1c1cccc(-c2ccccc2)c1 | 1.1 | 1.78µM* | 4.8% | -0.7 | -6.6 | -24.3

The main list resumes with the 3 entries that preceded the break.
SMILES	Six1-Eya2 blk	Sfp PPTase inh	PINK1 expr mod	CtBP-E1A blk	D2 ag	TRPV1 PAM	D2 potentiator
CC1Oc2ccccc2C(=O)N(CC(=O)c2ccc3c(c2)OCCO3)C1=O (stereo unspecified)	8.0	11.0%	0.0%	6.3	-2.6	11.6	21.1
O=C(NC1(C(F)(F)F)C(=O)Nc2c1c(=O)[nH]c(=O)n2-c1ccccc1)c1cccnc1 (stereo unspecified)	3.5	1.3%	-1.7%[38.3 µM]	1.7	-0.3	2.0	-5.1
O=C(OCc1cc2ccccc2[nH]c1=O)c1ccc([N+](=O)[O-])cc1	1.3	27.1%	1.6%	/	4.9	?	-5.5
COc1cccc(NC(=O)c2ccccc2-c2nc(-c3ccc(F)cc3)no2)c1	22.2	1.1%	5.4%	0.0	-4.5	2.1	-28.8
COc1ccc(C(=O)/C=C/Nc2cccc(O)c2)cc1	-3.1	-10.2%	/	-1.4	-3.4	3.2	-3.8
O=C(O)COc1ccccc1-c1nc(-c2ccccc2)c(-c2ccccc2)[nH]1	-19.1	-29.2%	-1.4%	/	7.9	12.0	7.0
CCOC(=O)c1cc2c(=O)n3ccccc3nc2n(CC(C)C)c1=NC(=O)c1c(-c2c(F)cccc2Cl)noc1C	14.0	5.3%	7.9%&1.2%	7.1	-1.3	-0.7	-8.1
O=C(O)CCC1(C(=O)O)CCC(=O)c2ccccc21 (stereo unspecified)	1.8	/	-0.1%	-4.7	-2.6	/	-0.6
COc1ccc(-c2noc(-c3ccccc3C(=O)Nc3cccnc3)n2)cc1	3.6	1.7%	-1.2%	-2.5	3.4	9.6	-7.4
O=C(c1cnsn1)N1CCC(CO)(Cc2ccc(Cl)cc2)CC1	10.7	-3.7%	-0.9%	15.1	-0.3	23.6	-0.8
CC(C)CN(C(=O)CN(C)C(=O)Cc1ccccc1Cl)c1c(N)n(CC(C)C)c(=O)[nH]c1=O	3.1	9.4%	1.0%	-1.6	-1.2	4.2	-15.8
Cn1c(=O)oc2cc(S(=O)(=O)NCCC(=O)NC3CCCc4ccccc43)ccc21 (stereo unspecified)	-1.2	8.2%	-2.7%[38.3 µM]	1.0	0.7	-17.6	-5.9
CCOC(=O)C1=C(c2ccccc2)N=c2s/c(=C\c3cccc(O)c3)c(=O)n2C1c1cccs1 (stereo unspecified)	-7.6	29.7%	/	-1.0	-3.5	-19.7	-19.4
Cc1ccc(OCCC(=O)OCC(=O)Nc2ccc(Cl)cn2)cc1	-5.7	8.6%	2.9%	-1.6	1.0	-8.5	-18.4
COc1ccc(-c2csc(NC(=O)COC(=O)C3=COCCO3)n2)cc1	7.0	21.9%	2.2%	/	-6.5	14.9	-5.8
CCn1c(Cc2ccccc2)nnc1SCC(=O)Nc1nc(C)c(C)s1	-1.0	-14.0%	1.2%[38.3 µM]	7.7	-0.5	15.7	-1.7
CCc1ccccc1NC(=O)N[C@H](C(=O)O)C(C)C	8.7	14.9%	-1.4%	5.6	-3.7	9.6	-4.9
O=C(c1ccco1)N1CCN(C(c2ccccn2)c2nnnn2C2CCCC2)CC1 (stereo unspecified)	-1.4	0.8%	-0.1%[38.3 µM]	1.1	-1.4	4.8	7.2
Cn1cccc1C(=O)OCc1cc(-c2ccco2)on1	-10.9	/	5.0%	-15.8	-2.1	-6.5	-1.7
Cc1cc(C)c(-n2c(SCCS(=O)(=O)c3ccc(F)cc3)n[nH]c2=O)c(C)c1	-4.8	14.3%	0.7%	-6.7	3.7	8.6	0.5
CCc1ccc(N2CC(O)(c3cccs3)[N+]3=C2SCCC3)cc1 (stereo unspecified)	0.7	14.6%	-1.9%	-10.3	-3.7	-12.9	-12.5
COC(=O)C1=C(C)N(Cc2ccccc2)C(=NCCN2CCOCC2)N[C@H]1CCc1ccccc1	-1.9	4.0%	0.7%	/	-0.7	-1.6	-9.5
CC(C)CC(NC(=O)OCc1ccccc1)C(=O)NC(Cc1c[nH]c2ccccc12)C(=O)O (stereo unspecified)	1.9	/	2.2%	7.3	1.8	/	4.6
CCS(=O)(=O)NCC(c1ccco1)N1CCN(c2ccccc2F)CC1 (stereo unspecified)	7.6	24.4%	0.8%	2.6	-2.6	-7.7	-0.9
COc1ccc(-n2nnnc2SCC(=O)N(C)C2CCS(=O)(=O)C2)cc1 (stereo unspecified)	-3.9	/	-1.3%	2.4	-2.6	/	-14.1
Brc1c(CSc2nc3ccccc3s2)nc2ncccn12	-7.2	8.1%	2.9%	17.5	-3.3	0.7	7.3
COC(=O)Cc1c(O)ccn(CCc2ccccc2)c1=O	11.6	1.9%	0.6%	-1.2	-3.4	-8.0	-0.1
O=C(CCNS(=O)(=O)c1ccccc1)NCCCSc1ccccc1	0.0	11.4%	5.1%	8.2	-4.1	9.2	-11.8
CCCC(=O)Nc1cccc(C(=O)Nc2nccs2)c1	-6.8	4.5%	0.4%	-1.8	-3.9	4.8	-11.0
COc1ccc(Nc2nc(-c3cccnc3)nc3ccccc23)cn1	-65.3*	5.5%	1.4%	?	-1.5	-3.5	2.7
c1csc(-c2nc3nc4ccccc4nc3n2Cc2ccc3c(c2)OCO3)c1	5.7	-8.4%	-0.4%	16.8	-0.8	21.0	-1.1
Cc1c(CCC(=O)N2CCC[C@H]2C(=O)O)c(=O)oc2cc3oc4c(c3cc12)CCCC4	-6.3	15.0%	0.7%	-4.5	3.0	13.9	-13.4
